# From PubChem
# NPYLR7 agonist: mosquito NPYLR7 agonism. actives 0.15% (n = 270,000). AID 1259423. HEK293T NPYLR7/Galpha15, GCaMP6s calcium fluorescence. activation, % at 10 µM; in the data active means activation above about 40%;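 further: 0% = vehicle and 100% = reference agonist at the receptor; some compounds past the cut are filed as inactive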
# NPYLR7 agonist max-min: second read-out of NPYLR7 agonist, no call of its own (marks repeat the call); activation, %; measured here: Max-Min RFU normalised activation; some inactives read as strong as hits;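 span of the calcium signal over five minutes; 0% = vehicle and 100% = native peptide agonist; compound fluorescence can raise it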
# * = called active by the depositor; & = joins results of further samples. An excerpt; count on the stated rates, not on these rows.
SMILES,NPYLR7 agonist,NPYLR7 agonist max-min
O=C(CSc1ncnc2sc3c(c12)CCCC3)Nc1ccc(Cl)cc1,0,-4
COCCN(CC(=O)N(CCc1ccccc1)Cc1ccc(C)o1)Cc1cc(F)cc(F)c1,8,8
O=C(c1ccc(Cl)cc1Cl)N(Cc1nc2cc(Cl)ccc2o1)C1CCCC1,1,-2
COc1cccc(CN(CCC(C)C)CC(O)COCc2ccccc2)c1OC (stereo not drawn),18,30
CC=CCn1c(SCCCCCC)nc2c1c(=O)[nH]c(=O)n2C,0,-5
Cc1ccc(NC(=O)Nc2ccc(N3CCCC3)c(C(=O)NCc3ccccc3)c2)cc1,7,8
CN1C(=O)/C(=C\c2cc(Cc3ccccc3)ccc2O)SC1=S,4,3
Cc1csc(-c2nccn2CCc2c(C)n[nH]c2C)n1,-1,-7
CCc1ccccc1-n1cc(O)c(C(=O)N(C)Cc2cnccn2)n1,8,4
C=Cc1ccc(Cn2cc(C(=O)NCc3ccco3)sc2=O)cc1,7,-1
COc1ccccc1-c1cc(NC2CCNCC2)nc2[nH]ccc12,12,-8
CCc1nccn1CC(=O)N1CCCC(O)(CN(C)C)C1 (stereo not drawn),-1,6
CCC(C(=O)N1CCC2(CC1)NC(=O)c1c(C)cccc1N2)c1ccccc1 (stereo not drawn),-3,1
O=C(COC(=O)CCNC(=O)NC12CC3CC(CC(C3)C1)C2)NCC(F)(F)F,17,24
O=C(c1ccc(CNC2CCSC2)cc1)N1CCCC1 (stereo not drawn),11,2
COc1ccc(CN(C)Cc2coc3ccccc3c2=O)c2cccnc12,24,9
CC(C)N(Cc1ccc(OS(=O)(=O)c2cccc(C(F)(F)F)c2)cc1)C(=O)NCc1ccccc1,-1,13
Cc1nc(-n2nc(-c3ccco3)cc2NC(=O)/C=C\c2ccccc2)[nH]c(=O)c1C,6,2
O=c1[nH]cnc2c1sc(=S)n2-c1ccccc1,0,-2
O=[N+]([O-])c1ccc(NN=C2CCCCC2)c(S(=O)(=O)N2CCOCC2)c1,-7,-7
CC(C)n1cc(C(=O)N2CCC(n3nccc3NC(=O)CCc3ccccc3)CC2)cn1,-4,-5
NC(=O)c1cccnc1N1CCN(Cc2ccc(Cl)cc2)CC1,2,1
CCCc1nc(C)cc(N2CCC(O)(C(=O)O)CC2)n1,6,4
Nc1ccsc1C(=O)N1CCCC(CCc2ccccc2F)C1 (stereo not drawn),7,3
Cc1n[nH]c(C)c1NC(=O)CN1CC(C)CC1c1ccccc1F (stereo not drawn),9,4
O=C(Nc1ccc(Cl)c2ncsc12)c1ccc([N+](=O)[O-])cc1,3,7
Cc1cnc(C(=O)NCC2CCN(c3cnn(C)c(=O)c3)C2)[nH]1 (stereo not drawn),6,-4
COCCCN(Cc1c(C)nn(-c2ccccc2)c1N1CCN(C)CC1)C(=O)C1CC1,-1,3
Cc1cnc(C)c(-c2cccc(CN3CCOCC3)c2)n1,-1,14
CCn1c(C)cc(O)c(C(c2ccccc2OC)N2CCN(c3ccccc3F)CC2)c1=O (stereo not drawn),11,2
CCOC(=O)c1ccccc1NC(=O)CSc1nc(=O)n2ccc(C)cc2n1,-1,-1
OCC1(Cc2ccccc2)CCCN(c2ccc(-c3ccccc3)nn2)C1 (stereo not drawn),23,18
Cc1ccc(-c2cnc(N)cn2)c2cccnc12,8,4
O=C(NCCCn1ccnc1)c1nnc2n(c1=O)CCN2c1ccc(F)cc1,3,-1
COC(=O)c1cn(Cc2cccc(OC)c2)nc1S(=O)(=O)N1CCSCC1,-11,-12
CC(Nc1ccc(Cl)cc1Cl)C(=O)O (stereo not drawn),11,8
CC(C)(C)c1ccc(-n2c(=O)[nH]c3c(C(N)=O)nc(CCc4ccccc4)nc32)cc1,-4,-8
CCCCn1c(=O)c2oc3ccccc3c2n(CC(=O)Nc2c(C)cccc2CC)c1=O,-1,4
CN(Sc1ccc([N+](=O)[O-])cc1)C1CCS(=O)(=O)C1 (stereo not drawn),5,5
Cc1nc(N2CCN(c3ccccc3)CC2)nc2c1C(=O)CC(c1cccs1)C2 (stereo not drawn),3,2
CCCCN1C(=O)C(=Cc2c(NCCC)nc3ccccn3c2=O)SC1=S,1,-1
CCOn1c(=O)c(-c2cccc3ccccc23)[n+]([O-])c2ccccc21,17,5
CCOC(=O)c1nc2cc(C)c(C)cc2nc1N1CCN(C(=O)c2cc(C)oc2C)CC1,3,2
O=C(NN1CCOCC1)[C@@]1(OCc2cccc(F)c2)CC(OCc2cccc(C(F)(F)F)c2)[C@H](O)[C@H](O)C1 (stereo partly drawn),8,11
Fc1ccc2nc(C3CCCN3Cc3nc(-c4ccc5c(c4)OCO5)no3)[nH]c2c1 (stereo not drawn),0,-3

# Compound profiles (already shown). Order of values: NPYLR7 agonist, NPYLR7 agonist max-min
# Results for CC(Nc1ccc(Cl)cc1Cl)C(=O)O (stereo not drawn) → 11, 8
# Results for COC(=O)c1cn(Cc2cccc(OC)c2)nc1S(=O)(=O)N1CCSCC1 → -11, -12

# Back to the main list, repeating the 7 entries before the break.
SMILES,NPYLR7 agonist,NPYLR7 agonist max-min
CN(Sc1ccc([N+](=O)[O-])cc1)C1CCS(=O)(=O)C1 (stereo not drawn),5,5
Cc1nc(N2CCN(c3ccccc3)CC2)nc2c1C(=O)CC(c1cccs1)C2 (stereo not drawn),3,2
CCCCN1C(=O)C(=Cc2c(NCCC)nc3ccccn3c2=O)SC1=S,1,-1
CCOn1c(=O)c(-c2cccc3ccccc23)[n+]([O-])c2ccccc21,17,5
CCOC(=O)c1nc2cc(C)c(C)cc2nc1N1CCN(C(=O)c2cc(C)oc2C)CC1,3,2
O=C(NN1CCOCC1)[C@@]1(OCc2cccc(F)c2)CC(OCc2cccc(C(F)(F)F)c2)[C@H](O)[C@H](O)C1 (stereo partly drawn),8,11
Fc1ccc2nc(C3CCCN3Cc3nc(-c4ccc5c(c4)OCO5)no3)[nH]c2c1 (stereo not drawn),0,-3
CCn1cc(CNC(=O)c2cc(F)cc(Br)c2)cn1,7,4
CN(C)C(=O)N1CCN(Cc2ccccc2N2CCCC2)CC1,0,0
O=C(COc1ccc2oc3c(c2c1)CCCC3)NC1CCCCC1,7,7
Clc1ccc(CSc2nnc(Cn3cncn3)o2)s1,-8,-12
CC(C)c1nnsc1CNC(=O)c1cnnn1-c1ccccc1,4,-3
CSc1ccc(C(=O)NC(C)c2ccco2)cc1[N+](=O)[O-] (stereo not drawn),4,0
Nc1c(C(=O)CSc2ccccn2)c(=O)[nH]c(=O)n1C1CC1,0,0
COc1ccc(CCN(C)C(=O)c2cccnc2Nc2cccc(C)c2C)cc1OC,-2,-11
COc1ccc(-c2nnc3c4cnn(-c5ccccc5)c4ncn23)cc1OC,0,-1
CC(C)CNC(=O)CSc1nnc(CN2CCCCCC2=O)o1,2,1
CCCNC(=O)C1(C)CCCN(Cc2cccc3c2OCCO3)C1 (stereo not drawn),1,1
CC(NC(=O)CCNc1nc(-c2ccccc2)nc2ccccc12)c1ccccc1 (stereo not drawn),5,14
CCCCN(CC(=O)N(CCc1c[nH]c2ccccc12)Cc1ccc(Cl)c(Cl)c1)C(=O)c1cccc(OC)c1,11,4
COc1cccc(C(=O)OCC(=O)c2ccc(OC)c(OC)c2)c1,15,6
O=C(NCC1CCCO1)N1CCc2sccc2C1c1ccccc1 (stereo not drawn),-8,-6

# A different layout for some results above:
mol	NPYLR7 agonist	NPYLR7 agonist max-min
COc1ccc(-c2nnc3c4cnn(-c5ccccc5)c4ncn23)cc1OC	0	-1
CC(C)CNC(=O)CSc1nnc(CN2CCCCCC2=O)o1	2	1
CCCNC(=O)C1(C)CCCN(Cc2cccc3c2OCCO3)C1 (stereo not drawn)	1	1

# New compounds follow.
SMILES,NPYLR7 agonist,NPYLR7 agonist max-min
CCn1c(=O)c2c(nc3n2CC(C)CN3c2ccccc2C)n(C)c1=O (stereo not drawn),-6,-8
O=C(NCC1CCCO1)c1ccc(CSc2nc(-c3ccccc3)cc(N3CCN(c4cccc(C(F)(F)F)c4)CC3)n2)cc1 (stereo not drawn),6,14
CCc1nc2c(OCc3ccc(Cl)cc3Cl)cccn2c1N(C)C(C)=O,14,-1
COc1ccsc1C(=O)Nc1cc(Br)ccc1N1CCN(C)CC1,4,4
CSc1ccc(C2Nc3ccccc3-c3nnc(SC)nc3O2)cc1 (stereo not drawn),1,0
Cc1ccn2c(NC(=O)C3CCCCC3)c(-c3cccc(Cl)c3)nc2c1,-4,-4
COc1cc(OC)c(NC(=O)CN2CC(=O)NC2=O)cc1F,-3,6
CC(C)C1CN(C(=O)c2ccnc(Cl)c2)CCS1 (stereo not drawn),-1,-4
Cc1ccc2c(c1)N(Cc1ccc3c(c1)OCO3)C(=O)C(C)O2 (stereo not drawn),5,12
CC(C)N(C(=O)Cn1cnc2c(nnn2C)c1=O)C(C)C,1,13
C=C(C)CN=c1scc(-c2ccco2)n1N=Cc1cc2c(cc1[N+](=O)[O-])OCO2,0,26
Cc1ccc(C=NNS(=O)(=O)c2cc(C)ccc2C)c(C)c1,-1,-3
CC(C)n1cc(C(=O)N2CCCC(C(=O)c3ccc(-c4ccccc4)c(F)c3)C2)cn1 (stereo not drawn),3,1
COc1ccc2c(c1)OCC(C=C1N=C(c3ccccc3Br)OC1=O)=C2,0,14
CCCCCCCCS(=O)(=O)N(CCN1CCCC1)CC(=O)N(CCc1ccc(OC)c(OC)c1)Cc1sccc1C,-4,7
O=C(CSc1ncnc2c1oc1ccccc12)c1ccc(Cl)cc1,1,-3
CC(C)NC(=O)CN1CCN(c2cc(Oc3ccc(Cl)cc3)ncn2)CC1,-5,1
O=C(NCCc1ccccc1)c1cccc(OC2CCN(C3CCCCC3)CC2)c1,7,10
O=C(c1ccoc1)N1CCCC(N2CCN(Cc3ccc4c(c3)OCO4)CC2)C1 (stereo not drawn),3,0
O=C(NCC1CCN(c2nc(Cc3ccc(Cl)cc3)ns2)CC1)c1ccc(Cl)c([N+](=O)[O-])c1,14,18
COc1cc2c(cc1OC)C(c1ccccc1Cl)N(C(=O)c1ccccc1C(F)(F)F)CC2 (stereo not drawn),-3,7
CCc1ccccc1NC(=O)N1CCN(c2ccc3nnc(-c4ccco4)n3n2)CC1,0,5
CCOC(=O)C(=O)N1CCC(Cc2ccc(-c3ccccc3)cc2)CC1,2,0
COc1cc(C(=O)N2CCCN(c3nc4cc(C)c(C)cc4nc3-c3ccccc3)CC2)cc(OC)c1OC,2,-4
Cc1ccnc(NC(=O)CCCc2nc3ccccc3c(=O)[nH]2)c1,4,-2
Cc1ccccc1-c1n[nH]c(=S)o1,13&4,11&1
CCOc1ccc(C(C2Sc3nc(CC)nn3C2=O)N2CCC(C(N)=O)CC2)cc1 (stereo not drawn),-5,-10
N#CC(=Cc1ccccc1Cl)S(=O)(=O)c1ccccc1,-4,-7
CCn1c(CC2CCN(Cc3ccc(F)c(F)c3F)CC2)nn(C)c1=O,1,-1
CC(C)Cn1c(=O)[nH]c2c(C(=O)N3CCN(c4ncccn4)CC3)snc2c1=O,-9,-8
COc1cc2c(cc1OC)CN(C1CCCN(Cc3cnn(C)c3)C1)CC2 (stereo not drawn),-1,-3
O=C1NC(C2=Cc3cc(Cl)ccc3OC2)Nc2ccccc21 (stereo not drawn),15,5
COC(=O)c1cccnc1Sc1ccccn1,6,5
O[C@@H]1C[C@@H]2CO[C@@H](c3ccccc3)C[C@@]2(O)[C@H]1N1CCN(c2ccccc2)CC1,2,6
O=C(CNC(=O)C12CC3CC(C1)CC(c1ccccc1)(C3)C2)NCc1ccco1,7,7
CN1C(=O)N(C)C2(CCN(C(=O)C3CCCCC3)CC2)C1=O,-7,-8
Cc1nc(/C=C/C(=O)NCC(C)N2CC(C)OC(C)C2)cs1 (stereo not drawn),6,3
Cc1ccc(C(=O)NCc2ccccc2)cc1Oc1nc(Cc2ccccc2)ns1,25,27
Cc1ccc2nc(SCc3ccc(Cl)c(Cl)c3)nc(=O)n2c1,4,1
Cc1nc(SCc2ccc(C(=O)NC(C)c3ccccc3)cc2)nc(N2CCN(C)CC2)c1C (stereo not drawn),-2,-2
O=S(=O)(NCC1NCCc2ccccc21)c1ccccc1 (stereo not drawn),9,8
O=C(CCC1CCCC1)Nc1ccc2c(c1)OC1(CCCC1)O2,0,4
COc1ccccc1CCC(=O)N1CCC(n2c(C)nc3ccc(F)cc32)CC1,1,2
CCc1ccc(-n2c(=O)c3c4c(sc3n(CC(=O)NCCCOC)c2=O)CCC4)cc1,3,3
CC(C)Cc1cc(CN2CCC(C(=O)Nc3ccc(Oc4ccccc4F)cc3)CC2)[nH]n1,16,14
O=C(O)c1cc(-c2ccc(F)cc2)nc2onc(C3CC3)c12,-4,-4
CCOC(=O)c1c(-c2cccs2)csc1NC(=O)CCCCCN1C(=O)c2ccccc2C1=O,-6,-14
CCc1cc(Oc2ccccc2OC)nc(SCc2cccc([N+](=O)[O-])c2)n1,1,7
CC(C(=O)NCc1cccnc1-n1ccnc1)n1cncn1 (stereo not drawn),8,4
CCN(Cc1ccc(Br)s1)C(=O)Nc1cccc(F)c1,6,4
Cc1ccc(C)c(NC(=O)CCN2C(=O)c3ccccc3C2=O)c1,5,1
O=C(CS(=O)(=O)c1ccc(F)cc1)Nc1nc(-c2nc3ccccc3s2)cs1,10,2
CC(C)(C)n1ncc2c(=O)n(NC(=O)c3cccc(Cl)c3)cnc21,1,-1
Cc1cccc(CNC(=O)C2(Oc3cccnc3C)CCNCC2)c1C,12,9
NC1CCN(c2ccccc2C(=O)N2CCN(c3ccccc3F)CC2)CC1,-5,5
O=C(C(=O)N1CC[C@@H](c2ccc3c(c2)OCO3)[C@H](O)C1)c1ccco1,19,10
CN(C)C(=O)c1cc(Oc2ccc(N)cc2)ccn1,10,9
CC(C)C(O)(C#CCN1CCCCC1)C(C)C,11,5
CCN(Cc1ccncc1)C(=O)C1CC(=O)N(Cc2ccc(C)cc2)C1 (stereo not drawn),13,5
